Hsc70: Hsc70 inhibitors, probe displacement, primary screen, biochemical, fluorescence polarization (AID 568); 83,000 tested, under 10 active; Heat shock cognate 71 kDa protein (Homo sapiens); one-dose displacement, % at 20 µM; IC50 in µM for titrated hits; Hsc70 fluorescence polarization, probe displacement; higher % means a stronger effect; strong numbers were not always called active;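 active means displacement above 50% without optical interference and an IC50 on retest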;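 further: ATPase domain with a fluorescein-tagged ATP probe; 0% = vehicle and 100% = excess ADP; read after one hour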
WNV protease inh: inhibitors of WNV NS2B-NS3 protease, primary screen, biochemical, fluorogenic substrate; Genome polyprotein (West Nile virus), P06935; fluorogenic substrate Ex360/Em465; active compounds read low; z-score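 (tested at a level between 10 and 100 µM)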; actives 0.18% (n = 65,000); AID 577, 2007;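 active means z-score at -3 or under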;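 further: score is relative to mean and spread of the compound wells of a plate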
Target sequence (P06935 1371-1501 limits assumed): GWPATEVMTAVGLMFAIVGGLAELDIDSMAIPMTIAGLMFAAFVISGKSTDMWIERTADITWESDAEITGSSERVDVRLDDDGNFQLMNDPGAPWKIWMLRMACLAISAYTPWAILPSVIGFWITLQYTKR
Target sequence (P06935 1502-1679 limits assumed): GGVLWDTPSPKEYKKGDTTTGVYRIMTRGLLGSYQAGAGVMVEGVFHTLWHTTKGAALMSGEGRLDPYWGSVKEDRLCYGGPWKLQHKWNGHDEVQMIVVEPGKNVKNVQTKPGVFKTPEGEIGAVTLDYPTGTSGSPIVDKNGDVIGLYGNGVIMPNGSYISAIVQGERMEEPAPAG
MT1-MMP reporter: inhibitors of MT1-MMP promoter transcription, cell-based, luciferase reporter, luminescence (AID 618) | MT1-MMP promoter luciferase reporter cells, luminescence | calls from a first round at 10 µM; hits with a dose series show EC50 in µM | actives 0.62% (n = 87,000);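 active means over half of the reporter light lost at 10 µM or EC50 under 50 µM; inactive means the rest and hits that failed the dose series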;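 further: actives suppress MT1-MMP promoter-driven transcription so potencies describe inhibitors; HT1080 fibrosarcoma cells; overnight exposure; toxic or luciferase-blocking compounds were not removed from the actives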
* marks the source's active call; other numbers are inactive results; i = inactive; . = not tested or not shown. No enrichment for hits; 0.87% or so of the library scored in one or more.

SMILES	Hsc70	WNV protease inh	MT1-MMP reporter
Cc1ccc(-c2nn(C)c(=O)c3ccccc23)cc1CNC(=O)/C=C/c1ccccc1	0.5%	.	i
Cn1c(SCC#N)nnc1-c1ccc2c(c1)OCO2	18.6%	.	i
COc1ccc(OC)c(NC(=O)CSc2nnnn2-c2ccccc2F)c1	-1.0%	-0.7	i
COc1ccc(C(c2nnnn2C(C)(C)C)N2CCN(c3nc4ccccc4s3)CC2)cc1 (centres undefined)	4.9%	-0.65	i
Cn1c(CCNC(=O)C(C)(C)C)nc2ccccc21	0.5%	-0.01	i
Cn1c(COc2ccccc2)nnc1SCC(=O)NCc1ccccc1	1.2%	-1.64	i
CCCc1nc2oc3c(NCCN(C)C)ncnc3c2c2c1CCCC2	1.4%	0.08	i
N#C/C(C(=O)c1ccccc1)=C1/CCCN1	7.0%	-1.04	i
Cc1cc(C)n(-c2nc3ccccc3[nH]c2=O)n1	0.8%	0.47	i
COC(=O)CCCC(=O)Nc1ccc(Cl)c(Cl)c1	3.5%	0.47	i
CCOC(=O)CSC1=NC(=O)CS1	-14.1%	1.07	i
CCN1C(=O)C2(C(C#N)=C(N)Oc3n[nH]c(C(C)C)c32)c2ccccc21 (centres undefined)	4.2%	-0.21	i
Cc1ccc(Cn2ccc(NC(=O)c3cc(-c4ccc(Cl)cc4)on3)n2)cc1	0.0%	-0.61	i
Cc1noc(C)c1S(=O)(=O)N1CCCC(C(=O)Nc2nccs2)C1 (centres undefined)	7.7%	0.84	i
COC(=O)C1(c2ccccc2)NC(c2cccs2)C2C(=O)N(C)C(=O)C21 (centres undefined)	-3.9%	0.64	i
CCOC(=O)c1[nH]c2cc3c(cc2c1NC(=O)CN1CC(C)CC(C)C1)OCO3 (centres undefined)	1.0%	-1.22	i
CCOc1ccc(NS(=O)(=O)c2ccc(OCC(=O)N3CCCC3)cc2)cc1	0.3%	-0.34	i
O=C1CN(C(=O)CCCc2c[nH]c3ccccc23)c2ccccc2N1	22.4%	-0.05	i
CC1=C(C)CC(C(=O)N2CCN(Cc3ccccc3)CC2)C(C(=O)O)C1 (centres undefined)	3.8%	-0.56	i
COC(=O)CN(n1cnnc1)S(=O)(=O)c1ccc(C)cc1	5.9%	0.97	i
CCn1nc(C)c(NS(=O)(=O)c2ccccc2)c1C	4.7%	.	i
O=C(c1cc(-n2cnnc2)ccc1Cl)N1CCN(c2nc(-c3ccccc3)cs2)CC1	0.8%	0.81	i
Cc1nn(C)c(C)c1S(=O)(=O)N1CCc2ccccc21	-2.3%	0.39	i
COc1ccc(C2NC(=O)c3ccccc3O2)c(OC)c1OC (centres undefined)	-3.6%	0.09	i
Cc1ccc(C(=O)COC(=O)CCC(=O)NC2CCCCC2)cc1C	-3.3%	.	i
CC(=O)CS(=O)(=O)c1ccc(Oc2ccc(S(=O)(=O)CC(C)=O)cc2)cc1	1.5%	.	i
Cn1nc(CC(=O)NC2CCCCCC2)c2ccccc2c1=O	1.5%	-1.39	i
Cc1cc(-c2ccccc2)nc(Oc2cccc(C(F)(F)F)c2)c1S(C)(=O)=O	-0.4%	.	i
CC1CCC(NC(=O)C2CCN(c3cnccn3)CC2)CC1 (centres undefined)	3.9%	0.03	i
O=C(CCCN1CCOCC1)c1ccc2c(c1)OCCO2	-0.1%	0.28	i

The last 2 entries of the part above lead into the next.
SMILES	Hsc70	WNV protease inh	MT1-MMP reporter
CC1CCC(NC(=O)C2CCN(c3cnccn3)CC2)CC1 (centres undefined)	3.9%	0.03	i
O=C(CCCN1CCOCC1)c1ccc2c(c1)OCCO2	-0.1%	0.28	i
COCc1cc(C)nc(Nc2ccc(C)cc2C)c1C#N	0.7%	-0.27	i
Brc1ccc(Oc2ncc(CN3CCN(c4ccccc4)CC3)s2)cc1	6.1%	.	i
C=CCn1cnc2c(c1=O)c1nc3ccccc3nc1n2Cc1ccccc1	0.8%	0.65	i
CCOc1nc(N(C)C)nc(-n2nnc(C(C)=O)c2C)n1	-2.4%	-0.76	i
Cc1ccc(C)c(C(=O)CC2(O)C(=O)N(C)c3ccccc32)c1 (centres undefined)	-1.6%	-0.5	i
Cc1ccc(CNC(=O)c2nc3nc(C)cc(C)n3n2)cc1	-3.7%	.	i
CCN(CC)CCNc1nc(-c2ccco2)c2c(c1C#N)CC(C)(C)OC2	3.0%	0.24	i
COc1ccc(/C=C/C(=O)CC(O)(c2ccccc2)C(F)(F)F)cc1 (centres undefined)	2.0%	.	i
CCOC(=O)C1CCN(C(c2cccc(F)c2)c2sc3nc(C)nn3c2O)CC1 (centres undefined)	0.0%	-0.48	i
CCCc1cc(=O)[nH]c(SCC(=O)N(CC)C2CCS(=O)(=O)C2)n1 (centres undefined)	0.2%	.	i

Profiles from above. Screens in order: Hsc70 | WNV protease inh | MT1-MMP reporter
Entry for `CCN(CC)CCNc1nc(-c2ccco2)c2c(c1C#N)CC(C)(C)OC2` → 3.0% | 0.24 | i
Entry for `COc1ccc(/C=C/C(=O)CC(O)(c2ccccc2)C(F)(F)F)cc1` (centres undefined) → 2.0% | . | i

Continuation:
SMILES	Hsc70	WNV protease inh	MT1-MMP reporter
CCOCCCNCC(=O)N1CCN(S(=O)(=O)c2ccc(C)cc2)CC1	-0.2%	0.75	i
CC(C)(C)c1ccc(OCC(=O)NC2CCS(=O)(=O)C2)cc1 (centres undefined)	-0.5%	-0.34	i
O=C(CSc1cccc(C(F)(F)F)c1)N1CCN(S(=O)(=O)c2ccccc2)CC1	-6.3%	-0.71	i
COc1ccc(NC(C)=O)cc1NC(=O)CSc1nnc(-c2cccnc2)n1C	-1.5%	-0.18	i
COc1ccccc1CC1(C)NC(=O)N(CC(=O)Nc2cc(C)on2)C1=O (centres undefined)	8.2%	-0.8	i
CCOc1ccc(Nc2nc(C)cc(C)c2C#N)cc1	-4.3%	-1.3	i
COc1ccc(Cl)cc1N(CC(=O)Nc1ccc2c(c1)OCO2)S(C)(=O)=O	5.0%	-0.15	i
Cc1cc2c(c(=O)n1CCc1ccccc1)C(c1ccco1)C(C#N)=C(N)O2 (centres undefined)	2.6%	.	i
CCCCC(Nc1ncnc2ccccc12)C(=O)O (centres undefined)	-1.8%	.	i
O=S(=O)(Nc1cccc2cccnc12)c1ccc(S(=O)(=O)N2CCCC2)cc1	3.8%	3.45	i

Next section, overlapping the part above by two compounds.
SMILES	Hsc70	WNV protease inh	MT1-MMP reporter
CCCCC(Nc1ncnc2ccccc12)C(=O)O (centres undefined)	-1.8%	.	i
O=S(=O)(Nc1cccc2cccnc12)c1ccc(S(=O)(=O)N2CCCC2)cc1	3.8%	3.45	i
Cc1ccccc1NC(=O)N1C2CCCC1CC(NC(=O)C1CC1)C2 (centres undefined)	-1.9%	0.9	i
COc1ccc(C(=O)O)cc1F	-3.6%	-1.29	i
CCN(CC)c1ccc(NC(=O)OC)cc1	-7.2%	.	i
COC(=O)c1ccc(CN2C(=O)NC3(CCC(C)CC3)C2=O)o1 (centres undefined)	0.0%	-0.32	i
Cc1nnc(NCCc2ccccc2)[nH]c1=O	6.2%	1.27	i
CCN=C(Nc1ccc2c(c1)OCO2)SC1CC(=O)N(c2ccccc2F)C1=O (centres undefined)	3.7%	-0.37	i
Cc1nn(Cc2ccccc2)c(C)c1C(=O)OCC(=O)c1cc(C)n(CC(F)(F)F)c1C	-0.4%	.	i
COc1ccc(C)cc1S(=O)(=O)Nc1cccc(Cl)c1Cl	-1.7%	.	i
Cc1ccc(C(=O)C2=C(O)C(=O)N(c3ncccn3)C2c2ccc(Cl)cc2)o1 (centres undefined)	3.1%	-0.65	i
Cc1nn(C(C)C(=O)O)c2ccccc12 (centres undefined)	0.5%	0.93	i
CCC(c1nnnn1CC1CCCO1)N(CCCO)Cc1cc2cccc(C)c2[nH]c1=O (centres undefined)	4.0%	.	i
CCCCc1nc2ccccc2c(NC(=O)CN2CCCC2)c1CCC	1.1%	.	i
CC1CCc2c(C(=O)NCC3CCCO3)csc2C1 (centres undefined)	-0.5%	-0.54	i
CNC(=O)c1sccc1SCc1c(Cl)cccc1Cl	2.7%	.	i
CCCCC(=O)Nc1ccc(NC(=O)c2ccccc2OC)cn1	-8.9%	-0.66	i
CC(C)CNS(=O)(=O)c1ccc(OCC(=O)NCC2CCCO2)c(Cl)c1 (centres undefined)	0.7%	.	i
CCOC(=O)c1nnc2cc(-c3ccc(Br)cc3)nn2c1C	-1.1%	0.5	i
Cc1ccc2[nH]c(=O)c(CN(Cc3cccnc3)C(=O)c3ccncc3)cc2c1	1.1%	-0.88	i
Cn1ccnc1SCC(=O)NC1CC1	1.5%	.	i
NS(=O)(=O)c1ccc(CNC(=O)C23CC4CC(CC(C4)C2)C3)cc1	0.6%	.	i
CCCCCn1c(N)c(C#N)c2nc3ccccc3nc21	-9.7%	0.47	i
Cc1cc2ncn(C3CC(=O)N(Cc4ccc(N5CCCC5=O)cc4)C3=O)c2cc1C (centres undefined)	-1.0%	0.75	i
COC(=O)c1sc(NC(=O)c2oc3ccccc3c2C)nc1C	-9.0%	0.08	i
CC(C(=O)NCc1ccc2c(c1)OCO2)N1c2cccc3cccc(c23)S1(=O)=O (centres undefined)	-2.5%	-1.04	i
COc1cccc(-c2nc(CS(=O)(=O)CC(=O)NCCCOC(C)C)c(C)o2)c1	-1.6%	1.39	i
Cc1cc(C)n(CCCNCC(O)c2ccccc2)n1 (centres undefined)	1.3%	-0.72	i
COC(=O)c1ccc(N2CCOCC2)c(NC(=O)Nc2cccc(OC)c2)c1	3.5%	0.47	i
O=C(CCN1C(=O)C2C3C=CC(C3)C2C1=O)NCC1CCCO1 (centres undefined)	1.5%	0.04	i
Nc1nonc1/C(=N/O)N1CCCC1	-5.7%	0.52	i
CCC(=O)Oc1ccc2c(C)c(Cl)c(=O)oc2c1	-0.3%	0.85	i
COc1ccc(OCCCSc2ncccn2)cc1	6.6%	0.52	i
COCCNC(=O)COc1ccc(C)cc1C	5.1%	.	i
CCc1nnc(NC(=O)Cn2nc(-c3ccccc3OC)ccc2=O)s1	-0.9%	0.44	i
N#Cc1nc(-c2ccc(Cl)cc2)oc1N1CCCCC1	3.8%	0.43	i
CCOC(=O)CNC(=O)C1CCCN(c2ncccn2)C1 (centres undefined)	-4.6%	0.05	i
Fc1ccccc1-n1[nH]nnc1=S	5.3%	.	i
O=C(Nc1ccccc1C(F)(F)F)c1ccc(F)c(S(=O)(=O)N2CCOCC2)c1	-1.4%	-0.57	i
COc1cccc(C(=O)Nc2cccc(-c3nnc(-c4ccccc4)o3)c2)c1	4.6%	0.9	i
COc1ccc(N2C(=O)C3CCCN3C2c2ccccc2)cc1Cl (centres undefined)	-1.2%	0.65	i
CC(SC(=S)N1CCOCC1)C(=O)O (centres undefined)	3.4%	.	i
Cc1ccc(O)c(C(CC(=O)N2CCCC2)c2ccccc2)c1 (centres undefined)	6.8%	0.1	i
CCC/C(O)=C1\C(=O)CC(C)(C)CC1=Nc1ccccc1OC	-6.4%	0.37	i
CN1C(=O)C2(NCCc3c2[nH]c2ccccc32)c2ccccc21 (centres undefined)	-2.6%	-0.01	i
Cc1ccc(C(C(=O)NCc2ccco2)N(CC2CCCO2)C(=O)Cn2nnc3ccccc32)cc1 (centres undefined)	-2.1%	-0.7	i
c1ccc(-n2ncc3c2ncn2cnnc32)cc1	1.2%	-2.12	i
COc1cc(NC(=O)Cc2ccc(Cl)cc2)ccc1NC(=O)c1ccco1	2.8%	-0.08	i
O=C(c1cccc(Cl)c1)N1CCN(C(=O)c2ccccc2F)CC1	5.6%	-0.25	i
Cc1ccc(SCC(=O)N2CCCC2)cc1	1.2%	-0.35	i
CCOC(=O)C1=C(C)NC(C)=C(C(=O)OCC)C1c1nc2ccccc2[nH]1	2.8%	-0.56	i
CNC(=S)NN(c1ccccc1)c1ccccc1	1.6%	.	i
The results go on:
SMILES	Hsc70	WNV protease inh	MT1-MMP reporter
CCOC(=O)N1CCN(C(=O)c2ccc(NC(=O)c3ccc(C)cc3)cc2)CC1	-1.9%	0.67	i
O=C(Cc1cccs1)Nc1nc(-c2ccccc2)cs1	-0.8%	-0.16	i
Cc1cc(C)c2c(=O)cc(C(F)F)oc2c1	-1.2%	.	i
COc1ccc(OC)c(S(=O)(=O)Nc2ccc(CC(=O)O)cc2)c1	-0.7%	0.12	i
O=C(O)c1sccc1S(=O)(=O)c1ccccc1	4.3%	-0.97	i
COc1cccc(C(=O)O/N=C/c2ccc(Sc3ccc(C)cc3)nc2)c1	3.1%	.	i
COc1ccc(Nc2ncnc3ccccc23)c(OC)c1	4.1%	.	i
O=C(NCCc1ccccc1)c1noc2c1CCCCC2	-1.3%	-1.11	i
N#Cc1c(SCc2nc3ccccc3[nH]2)nc2c(c1C(F)(F)F)CCC2	2.2%	.	i
Cc1nccn1CC(O)Cn1c2ccccc2c2ccccc21 (centres undefined)	2.4%	.	i

An excerpt of these results, with values under each structure.
Order of values – Hsc70	WNV protease inh	MT1-MMP reporter
- CC1=C(C)CC(C(=O)N2CCN(Cc3ccccc3)CC2)C(C(=O)O)C1 (centres undefined)
→ 3.8%	-0.56	i
- COC(=O)CN(n1cnnc1)S(=O)(=O)c1ccc(C)cc1
→ 5.9%	0.97	i
- CCn1nc(C)c(NS(=O)(=O)c2ccccc2)c1C
→ 4.7%	.	i
- O=C(c1cc(-n2cnnc2)ccc1Cl)N1CCN(c2nc(-c3ccccc3)cs2)CC1
→ 0.8%	0.81	i
- Cc1nn(C)c(C)c1S(=O)(=O)N1CCc2ccccc21
→ -2.3%	0.39	i
- COc1ccc(C2NC(=O)c3ccccc3O2)c(OC)c1OC (centres undefined)
→ -3.6%	0.09	i

Source: PubChem
